Assay outcomes as filed in PubChem BioAssay.
FGF22 binding: shifts melting point of recombinant human FGF22. calls only at 9.99 µM. Q9HCT0. hit rate 1.5% among 340,000. AID 651658. recombinant FGF22 thermal shift, SYPRO orange fluorescence; percent of sucrose octasulfate shift, DMSO zero;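 active = melting point raised past a set limit in the mean and every replicate; inconclusive = no clear call; three in four hits are not shown here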
Target sequence (Q9HCT0 whole entry, looked up): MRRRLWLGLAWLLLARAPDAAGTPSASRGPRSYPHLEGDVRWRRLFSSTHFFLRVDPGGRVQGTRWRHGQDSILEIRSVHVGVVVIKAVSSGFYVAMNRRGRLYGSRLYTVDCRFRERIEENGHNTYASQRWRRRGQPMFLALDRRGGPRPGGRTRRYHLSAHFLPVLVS
Calb FLC: affects C. albicans growth with fluconazole. growth inhibition, % (test concentration not listed). C. albicans CaCi-2 (fluconazole-resistant clinical isolate) + fluconazole, Alamar Blue growth, 48 h. hit rate 0.57% among 300,000;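 active = most replicates above 75%; inconclusive = exactly half above 75%; inactive = most below 75%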;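 also: all wells also contain fluconazole at 8 µg/ml as a sub-toxic cotreatment; 0% = median of DMSO wells and 100% = median of geldanamycin control wells; wells of about 8 µL received 7.5 nL stock; the first replicate is given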
ALR inh: human ALR oxidase inhibition via reduced H2O2; P55789; purified ALR, DTT oxidation, H2O2 HRP-luminol luminescence; inhibition, % (test concentration not listed); hit rate 3.8% among 290,000; AID 485317;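 active = mean and each replicate at 75% or more; inconclusive = only one of the two met; inactive = neither met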;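 also: stock transfer was 7.5 nL into about 7.5 µL; 0% = neutral wells and 100% = wells with inactivated enzyme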
Target sequence (P55789 whole entry, looked up): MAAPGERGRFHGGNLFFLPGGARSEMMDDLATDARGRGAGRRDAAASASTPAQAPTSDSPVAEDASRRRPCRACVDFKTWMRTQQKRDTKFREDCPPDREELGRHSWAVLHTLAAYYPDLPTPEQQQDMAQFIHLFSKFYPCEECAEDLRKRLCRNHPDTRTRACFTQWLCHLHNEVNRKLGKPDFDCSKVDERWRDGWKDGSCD
Ecoli rRNA inh: inhibitors of bacterial rRNA selective over humanized ribosomes; GFP signal change (wild-type ribosome), % (test concentration not listed); hit rate 1.6% among 350,000; AID 720706; E. coli WT GFP vs humanized-ribosome RFP mutants, fluorescence, 24 h; hits give low values; DMSO median 0, no signal -100;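 active = significant combined selectivity score with lowered wild-type GFP, culture density cut under 30%, mutant RFP and density less affected; inactive = any of these conditions unmet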; also: one replicate is shown; some compounds called inactive have numbers as strong as hits
Beta apoptosis: beta cell apoptosis inhibition; INS-1E cytokine-induced death, ATP luminescence, 48 h; percent of positive-control rescue, neutral wells zero; protection from apoptosis, % (concentration not given with the values); hit rate 0.8% among 300,000; AID 435005;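 active = all replicates at 75% or more, or half of them and the mean; inconclusive = half reach 75% but not the mean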;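 also: 0% = cytokine-treated negative control wells and 100% = positive control rescue; higher means more ATP so stronger rescue from cytokine killing; wells of about 40 µL received 100 nL stock; the first replicate is given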
AF4-AF9 inh: MLL-AF4/AF9 protein interaction inhibition; P42568; AlphaScreen, biotin-AF4 peptide binding to FLAG-AF9; hit rate 0.47% among 350,000; inhibition, % at 10 µM;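 active = every replicate reaching a set inhibition limit, whatever the replicate mean, cut at about 25% in these data; inconclusive = mean inhibition reaches that limit but some replicates miss it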;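 also: 0% = plate neutral control median and 100% = total signal loss; the record names both 10 and 1 µM as test concentration; the first replicate is given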
Target sequence (P42568 whole entry, looked up): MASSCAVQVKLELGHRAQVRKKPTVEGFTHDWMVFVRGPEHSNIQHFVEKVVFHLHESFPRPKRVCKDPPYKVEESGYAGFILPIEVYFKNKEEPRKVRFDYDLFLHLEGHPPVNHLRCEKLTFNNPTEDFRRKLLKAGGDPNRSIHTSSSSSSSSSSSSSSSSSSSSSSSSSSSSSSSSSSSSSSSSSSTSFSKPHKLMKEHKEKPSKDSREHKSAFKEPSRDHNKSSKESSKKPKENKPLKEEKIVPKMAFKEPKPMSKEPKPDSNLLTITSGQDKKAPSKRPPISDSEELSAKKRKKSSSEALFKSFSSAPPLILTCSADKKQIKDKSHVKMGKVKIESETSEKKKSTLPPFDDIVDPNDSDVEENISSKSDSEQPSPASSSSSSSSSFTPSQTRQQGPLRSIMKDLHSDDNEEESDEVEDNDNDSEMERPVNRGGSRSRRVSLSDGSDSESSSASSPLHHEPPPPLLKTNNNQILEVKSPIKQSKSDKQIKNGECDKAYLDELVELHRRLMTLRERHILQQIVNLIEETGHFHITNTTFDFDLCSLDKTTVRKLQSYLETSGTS
RanGTP-Imp inh: disruptors of Ran-importin-beta complex formation – biochemical, FRET, CFP-Ran, YFP-importin-beta, homogeneous, primary screen | hit rate 1.1% among 300,000 | inhibition, % (concentration not given with the values) | cell-free CFP-Ran/YFP-importin-beta FRET ratio | AID 2216;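 active = most replicates above 15%; inconclusive = exactly half above 15%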;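 also: 0% = DMSO wells and 100% = Ran loaded with GDP instead of GTP; wells of about 40 µL received 100 nL stock; the first replicate is given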
T cruzi repl: T. cruzi replication inhibition; hit rate 1.4% among 300,000; T. cruzi beta-gal in NIH3T3, luminescence, 90 h; AID 1885; inhibition, % (test concentration not listed);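 active = mean inhibition across valid replicates above about 55%, limit read from the data; inconclusive = mean below that limit but half or more replicates reach it; inactive = mean below it, under half of replicates reach it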;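 also: signal also drops with host cell toxicity which is not excluded here; 0% = plate median of DMSO wells and 100% = zero luminescence signal; higher percent means less beta-gal luminescence so fewer parasites; stock transfer was 50 nL into about 50 µL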
Ecoli rRNA inh OD600: recorded beside Ecoli rRNA inh, whose call it bears; OD600 change, %; measured here: OD600 growth;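 optical density of the mix in the first replicate; 0 = DMSO median and -100 = no signal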
Ecoli rRNA inh RFP: also measured in Ecoli rRNA inh; calls as there; RFP signal change, %; measured here: RFP humanized mutant strains;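 first replicate; 0 = DMSO median and -100 = no signal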
Active calls of the source: *; i = inactive; ? = inconclusive; . = no result given.

SMILES	FGF22 binding	Calb FLC	ALR inh	Ecoli rRNA inh	Ecoli rRNA inh OD600	Ecoli rRNA inh RFP	Beta apoptosis	AF4-AF9 inh	RanGTP-Imp inh	T cruzi repl
CN(/N=C/c1ccc(Cl)cc1Cl)c1ncc(Cl)cc1C(F)(F)F	i	-10	1	3	2	-4.7	4	4.5	-1.5	5
C=CCC[C@@H](Cc1ccc(F)cc1)C(=O)OC[C@H](Cc1c[nH]c2ccccc12)NC(=O)[C@H](CC=C)CC(=O)NCCO	i	.	3	1	6	8.9	9	5.6	.	.
CC(=O)c1cn(CC(=O)Nc2ccccc2)c2ccccc12	.	14	-9	.	.	.	8	.	5.4	-13
COc1ccc(NC(=O)Cn2nnc(-c3ccccc3F)n2)cc1Cl	.	-4	-4	.	.	.	0	.	1.3	-5
Cc1cc(-c2ccco2)n2c(nc3ccccc32)c1C#N	.	6	.	.	.	.	3	.	-37	-9
N#CCSc1nc(Nc2ccc3c(c2)OCO3)c2ccccc2n1	i	2	0	-48	-47	-25	9	6.2	-4.6	35
CC(=O)Nc1ccc(C(=O)OCC(=O)N(C)C2CCCCC2)cc1	i	-7	15	19	8	0.2	-32	-1.3	-3.4	-8
CCCN1CCN(CCCNC(=O)C(CC)n2nc(C)n3c(cc4occc43)c2=O)CC1 (stereo not given)	i	?	0	3	10	-1.9	-3	4.4	-1.8	-1
O=C(c1ccccc1Oc1ccc(C(F)(F)F)cc1[N+](=O)[O-])N1CCOCC1	i	-14	-1	7	14	-0.8	-2	-0.7	2.3	-1
COc1ccccc1C(=O)Nc1nc2ccccc2s1	i	-12	-2	1	7	0.7	46	?	2.5	-10
N#Cc1cc2c(nc1SCC(O)CS(=O)(=O)Cc1ccccc1)CCCC2 (stereo not given)	i	5	-2	-35*	-22*	-4.9*	-8	-0.3	2.2	23
O=C(NC(=S)Nc1ccccc1[N+](=O)[O-])c1ccccc1	i	-7	-35	33	7	-0.3	7	.	3.9	8
CC(C)CC1NC2(C(=O)N(C)c3ccccc32)C2C(=O)N(C(C)C)C(=O)C12 (stereo not given)	i	-4	.	3	7	3.0	-5	10.0	4.5	-2
Cc1ccc(C)c(C(=O)CCC(=O)N2CCN(c3cccc(C(F)(F)F)c3)CC2)c1	i	.	.	-14	-28	4.0	5	-2.7	.	.
CC(=O)NCCOc1nc(N(C)C)nc(N2CCOCC2)n1	.	-3	3	.	.	.	-2	.	2.3	-10
C=CCn1c(SCc2ccccc2F)nc2cc(C(=O)O)ccc2c1=O	i	33	98*	-15	-34	-5.9	.	1.0	0.9	40
C/C(=N\NC(=O)CC(C)C)c1ccc(Cl)c(Cl)c1	.	-5	-17	.	.	.	.	.	0.6	10
Cc1cc(=O)[nH]c(-c2ccccc2)n1	.	1	.	.	.	.	1	.	4.3	-1
CS(=O)(=O)Cc1cc(N2CCCC2)nc(-c2ccccc2)n1	i	3	0	6	-1	-1.5	.	-1.4	-2.7	8
COc1ccc(C(=O)/C=C/Nc2cc(C)on2)c(OC)c1	.	-4	.	.	.	.	-5	.	?	-2
CSc1sc(C(=O)NNC(=O)c2ccc(Cl)cc2)c2c1C=CCC2	i	-2	0	.	.	.	-5	1.2	0.9	0
Cc1ccc2nc(-c3ccncc3)cc(C(=O)Nc3ccc(F)cc3C)c2c1	i	0	-4	0	6	1.4	18	-3.7	1.6	26
Cc1c(C2(O)CCCCC2)[nH]c2cnccc12	i	.	-19	6	12	-6.4	-1	-0.1	.	.
CC(NC(=O)C(NS(=O)(=O)c1cccc2nsnc12)C(C)C)c1ccccc1 (stereo not given)	.	10	.	.	.	.	-6	.	2.1	15
Cc1c(CC(=O)O)c(=O)oc2cc(OCc3ccc(F)cc3Cl)ccc12	i	5	-4	-12	-23	-4.5	0	5.1	0.4	7

New compounds follow:
SMILES	FGF22 binding	Calb FLC	ALR inh	Ecoli rRNA inh	Ecoli rRNA inh OD600	Ecoli rRNA inh RFP	Beta apoptosis	AF4-AF9 inh	RanGTP-Imp inh	T cruzi repl
Cc1ccc(C(=O)c2ccccc2C(=O)Nc2ccccc2)cc1	i	7	-3	-6	4	-3.6	3	-3.5	8.8	-28
CCCc1cc(=O)oc2cc(OCc3ccc(C(=O)O)o3)ccc12	i	5	6	-9	-11	0.2	-3	0.2	3.3	-7
CCCSCCCNC(=O)CC1Oc2ccccc2NC1=O (stereo not given)	i	-4	-18	-1	4	-2.5	-7	5.4	?	9
COc1ccccc1/C=N\N=C(\N)c1ccccn1	.	22	-1	.	.	.	-2	.	4.3	-8
O=C1c2cccnc2C(=O)N1c1cccc([N+](=O)[O-])c1	i	-2	-3	11	8	8.7	-2	-5.3	?	-16
CN1CCN(S(=O)(=O)c2ccc(NC(=O)c3cccs3)cc2)CC1	.	-8	0	.	.	.	-1	.	2.6	-13
Cc1ccc(C)n1-c1ccc(N2CCOCC2)c(Br)c1	.	-6	8	.	.	.	-2	.	8.3	13
Cc1cc(C)c(S(=O)(=O)N2CCCCC2C(=O)O)c(C)c1 (stereo not given)	i	-5	6	7	1	-1.9	-2	-1.8	-0.8	-5
CCOC(=O)C1=C(c2ccccc2)NC(=O)N(C(C)=O)C1c1cccc([N+](=O)[O-])c1 (stereo not given)	i	13	-4	-12	-10	-2.6	-8	0.8	2.5	-15
CC1CC(C)(C)CC2(C1)NC(=O)N(CC(=O)OCc1ccc(Br)cc1)C2=O (stereo not given)	i	.	-5	6	9	-1.5	-1	0.2	.	.
O=c1c2cc(N3CCOCC3)ccc2[nH]c(=S)n1Cc1cccc(Cl)c1	.	19	.	.	.	.	2	.	9.0	18
COC(=O)c1ccc(NC(=O)CSc2nnc(-c3ccncc3)n2C)cc1	.	?	-4	1	10	-6.4	6	.	?	-13
COc1ccc(NC(=O)CN(Cc2ccccc2)Cc2ccccc2)cc1S(N)(=O)=O	.	0	-5	.	.	.	6	.	3.4	7
COCCn1c(SCc2c(F)cccc2Cl)nc2c1c(=O)[nH]c(=O)n2C	.	-3	-3	.	.	.	-6	.	-1.4	1
CC(C)C(=O)N1CCN(S(=O)(=O)c2ccc3ccccc3c2)CC1	i	-8	-7	5	1	4.6	0	0.2	-1.1	-2
CCCN(CCC)S(=O)(=O)c1cc(CN2C(=O)c3cccnc3C2=O)ccc1OC	i	2	-3	12	9	-2.2	-4	0.4	2.0	-7
COc1ccc(-c2cc(C(=O)OCC(=O)NC(C)C)c3ccccc3n2)cc1	i	0	43	2	16	-0.1	5	-6.4	-1.8	-17
CCOC(=O)/C(C#N)=C/NC(=O)NC(C)(C)C	i	-30	-6	2	3	2.2	0	-41	1.4	-1
COC(=O)CN1C(=O)[C@H]2[C@@H](c3ccc(C)o3)N3C(=O)CN(Cc4ccc(-c5ccccc5)cc4)C(=O)[C@@]3(C)[C@H]2C1=O	i	-6	-9	4	3	-1.6	6	-2.6	5.7	-3
CCNS(=O)(=O)c1ccc(NC(=O)Cn2nc(C(F)(F)F)cc2C)cc1	.	-20	-12	.	.	.	-5	.	-1.3	1
Cc1cc(C)cc(NC(=O)COC(=O)c2ccc(CN3CCCC3=O)cc2)c1	i	.	-3	3	-1	-1.6	-5	0.8	.	.
COc1ccc(/C=N/Nc2snc(SC)c2C#N)cc1OC	.	18	8	.	.	.	35	.	12	5
O=C(Cn1nnc2c(cnn2-c2ccccc2)c1=O)N1CCN(c2ccccc2F)CC1	.	-11	2	.	.	.	0	.	-3.5	19
COc1ccc(N2C(=O)CSC23C(=O)Nc2ccccc23)cc1 (stereo not given)	.	1	?	.	.	.	-2	.	0.2	-2
Cc1ccccc1CSc1n[nH]c(NS(=O)(=O)c2ccccc2)n1	.	4	-1	.	.	.	-12	.	2.4	-1

Next compounds
SMILES	FGF22 binding	Calb FLC	ALR inh	Ecoli rRNA inh	Ecoli rRNA inh OD600	Ecoli rRNA inh RFP	Beta apoptosis	AF4-AF9 inh	RanGTP-Imp inh	T cruzi repl
CCCCNC(=O)CC1N=C2c3ccccc3N=C(SCC(=O)Nc3ccc(OC)cc3)N2C1=O (stereo not given)	.	-2	96*	.	.	.	-14	.	4.0	1
O=C(O)CCC(=O)Nc1ccc2c(c1)Cc1cc(NC(=O)CCC(=O)O)ccc1-2	i	-6	99*	6	3	-3.2	0	-1.7	1.8	-8
CC1CCCCN1CC(=O)c1c(N)n(Cc2ccccc2)c(=O)n(C)c1=O (stereo not given)	i	7	.	7	3	0.5	6	0.5	.	.
O=C(NCc1ccccc1)c1ccc2c(=O)[nH]c3c(C(=O)NCC4CCCO4)sc(=S)n3c2c1 (stereo not given)	i	24	8	-45	-58	-11	-6	0.6	?	6
CSCCC(NC(=O)c1cccc(C)c1)C(=O)O (stereo not given)	i	0	0	15	23	3.9	-4	-2.7	1.0	-12
CC(C)OCC(O)CN (stereo not given)	.	-6	.	.	.	.	-2	.	4.4	-10
CC1(C)Cc2c(cnn2-c2ccc(F)cc2)C(NC(=O)c2ccc(=O)oc2)C1 (stereo not given)	i	11	-8	9	2	1.0	-7	-1.5	0.9	-9
Cc1oc2cc3oc(=O)c(CC(=O)NCC(=O)N[C@@H](C(=O)O)c4ccccc4)c(C)c3cc2c1C	i	4	2	8	9	8.6	-5	-2.1	5.9	-13
Oc1ccc(Nc2nc(N3CCCC3)c3ccccc3n2)cc1	.	3	59	-25	-24	-23	99*	.	-3.3	59*
COc1ccc(-c2noc(CN(C)C3CCOCC3)n2)cc1	.	-5	-3	16	11	5.1	-1	0.4	-2.6	-4
O=C(O)C1(P(=O)(c2ccccc2)c2ccccc2)CCCC1	i	3	-4	8	15	-4.7	2	-5.7	0.6	-7
Cc1ccc(Cl)c(OCC(=O)Nc2ccccc2N2CCCCC2)c1	.	-3	-26	4	3	0.0	.	-2.4	-2.5	31
O=C(NCC(c1ccc(F)cc1)N1CCOCC1)c1ccco1 (stereo not given)	i	0	0	13	8	3.2	-3	-1.2	-0.7	1
Cc1nc2c3cc(F)ccc3n(CCN3CCCCC3)c2s1	i	4	5	-1	-2	-6.7	60	0.7	-0.6	2
COc1ccccc1NC(=O)c1cc2c(CO)cnc(C)c2oc1=Nc1cc(OC)c(OC)c(OC)c1	i	5	3	-6	3	-1.1	4	-5.0	1.2	-1
CCOc1ccccc1CNC(=O)C1CCCN(c2nnc(C)c3c(C)n(-c4ccccc4)nc23)C1 (stereo not given)	i	-5	1	-6	5	-6.0	36	-1.1	-3.3	30
CCCOC(=O)c1c(NC(=O)CCCn2nc([N+](=O)[O-])cc2C)sc(C(=O)OC)c1C	.	52	0	.	.	.	-6	.	4.0	35
Cc1ccc2nc(Nc3ccccc3)cc(C)c2c1	i	-3	6	-37	-56	-12	.	-6.0	?	7
COc1ccccc1N1CCN(C(=O)CN(CCc2ccccc2)S(C)(=O)=O)CC1	.	?	32	.	.	.	3	.	?	-2

Only part of the results is shown; count on the stated rates, not on these rows.
